# ClpP mod – qHTS Assay for Activators of ClpP | Potency, µM (top dose mostly 57.5 µM), without a hit: top-dose activity change, negative = active | 340,000 compounds, 1.9% hits | purified B. subtilis ClpP, FRET peptide cleavage, 20 min; active = well fitted falling curve with a large enough effect; inconclusive = small, poorly fitted or top-dose-only effect; inactive = no such curve, though single readings can be large or run the other way; further: the source files actives as falling curves though it sought activators and does not explain the sign; nearly all actives have a fitted effect of over 65% in size; many hits overshoot -100%
# Target sequence (P80244 whole entry, looked up): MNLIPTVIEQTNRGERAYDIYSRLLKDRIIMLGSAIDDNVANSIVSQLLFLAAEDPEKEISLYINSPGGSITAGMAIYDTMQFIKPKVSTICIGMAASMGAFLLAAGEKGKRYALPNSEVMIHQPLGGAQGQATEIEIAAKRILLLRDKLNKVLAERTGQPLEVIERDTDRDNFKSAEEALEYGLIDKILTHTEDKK
#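 Buffer: 100 mM Tris/HCl pH8, 100 mM KCl, 0.05% low protease BSA, 2.5% glycerol, 0.01% Tween-20. ClpP 10 microg/mL final; 20 min RT; delta FRET normalized to ADEP and DMSO controls.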
# The depositor's hits bear a star; ? = inconclusive. Potency means the concentration at half of the fitted maximal effect.
Structure	ClpP mod
CCN(CC)c1nc(NC2CCN(C)CC2)c2cc(OC)c(OC)cc2n1	4.0%
COc1cccc(-c2nc(Cn3c(=O)cc(C)c4c(C)nn(-c5ccccc5)c43)c(C)o2)c1OC	?
CCOc1ccc(CC(=O)NCc2ccc3c(c2)CCN3C(=O)c2ccc(F)cc2)cc1OCC	-0.2%
Cc1ccc(NC(=O)Cn2c(=O)n(Cc3ccc4c(c3)OCO4)c(=O)c3ccc(C(=O)NC4CCCCC4)cc32)cc1	-10.9%
CCOC(=O)c1ccc(NC(=O)CSc2c3c(nc4cc(Cl)ccc24)CCCC3)cc1	-1.8%
Cc1ccc(C2c3cccn3CCN2S(=O)(=O)c2ccc([N+](=O)[O-])cc2)cc1 (stereo unspecified)	-4.5%
CC(=O)c1ccc(C(=O)N(Cc2cccnc2)c2nc3c(C)c(C)ccc3s2)cc1	-1.4%
CCCC1=Nc2cc(C(=O)NCc3ccc(OC)cc3)ccc2Sc2ccc(C)cc21	-2.0%
CC(=O)N1CCCc2cc(S(=O)(=O)N(C)CC(=O)Nc3cccc(C)c3C)ccc21	-2.1%
Cc1ccc2nc(-c3ccc(N=Nc4cc(S(=O)(=O)O)c5ccccc5c4O)cc3)sc2c1S(=O)(=O)O	4.3%
CCN1CCN(c2ccc(NS(=O)(=O)c3c(C)nc4sccn4c3=O)cc2Cl)CC1	-3.7%
COCCCNc1nc2c(c(=O)[nH]c(=O)n2C)n1CC(O)COc1ccc(Cl)cc1 (stereo unspecified)	0.9%
CCN(c1ccccc1)S(=O)(=O)c1ccc2[nH]cc(C(=O)NCc3ccc(C)cc3)c(=O)c2c1	3.5%
CCOc1ccc2nc(N3CCCC(C(=O)NCc4ccc(C)cc4)C3)sc2c1 (stereo unspecified)	0.8%
O=S(=O)(NCCc1csc2nc(-c3ccc(Cl)cc3)nn12)c1cccs1	-0.1%
Cc1cc(Nc2ccccc2O)nc(C)n1	-2.6%
COc1ccc(CNC(=O)CCC2N=C3c4ccccc4N=C(SCc4ccccc4F)N3C2=O)cc1 (stereo unspecified)	-27.1%
CCOc1ccc(CNC(=O)C2CCN(S(=O)(=O)N3CCCCC3)CC2)cc1	-1.2%
COc1ccc(N2CCN(C(=O)COc3ccccc3C#N)CC2)cc1	-3.5%
Cc1ccc(CNC(=O)c2ccc3c(c2)N(Cc2cccc(Cl)c2)C(=O)CS3)cc1	1.5%
O=C(Nc1ccc(F)cc1F)c1cccc2c1C(=O)N(C1CCCCC1)C2	1.0%
O=C(CCCn1c2ccccc2c(=O)c2ccccc21)Nc1ccc(F)cc1Cl	4.0%
C1=CN2CC=Cc3cc(/C=C/c4ccnc5ccccc45)cc(c32)C1	-16.9%
CC(C(=O)Nc1ccccc1)n1nnc2sc3c(c2c1=O)CCCC3 (stereo unspecified)	-1.5%
Cn1nnnc1SCCNCc1ccccc1Cl	-0.4%

# 6 structures out of the list, ordered by formula weight, lowest first.
Structure	ClpP mod
Cn1nnnc1SCCNCc1ccccc1Cl	-0.4%
C1=CN2CC=Cc3cc(/C=C/c4ccnc5ccccc45)cc(c32)C1	-16.9%
CC(C(=O)Nc1ccccc1)n1nnc2sc3c(c2c1=O)CCCC3 (stereo unspecified)	-1.5%
CCN(CC)c1nc(NC2CCN(C)CC2)c2cc(OC)c(OC)cc2n1	4.0%
CC(=O)c1ccc(C(=O)N(Cc2cccnc2)c2nc3c(C)c(C)ccc3s2)cc1	-1.4%
COCCCNc1nc2c(c(=O)[nH]c(=O)n2C)n1CC(O)COc1ccc(Cl)cc1 (stereo unspecified)	0.9%

# (more compounds)
Structure	ClpP mod
COc1ccc(NC(=O)C2=C(C)Nc3nc(SCc4ccccc4C)nn3C2c2ccc(Br)cc2)cc1 (stereo unspecified)	-0.5%
CC(=O)Nc1ccc(NC(=O)C2CCN(S(=O)(=O)c3ccc4c(c3)CCCC(=O)N4)CC2)cc1	3.5%
Cc1ccc(-c2nnc(Nc3cccc(Cl)c3)c3ccccc23)cc1S(=O)(=O)N1CCN(C)CC1	-0.5%
COc1ccc(-c2cn3c(n2)sc2cc(C(=O)NCCc4ccc(OC)cc4OC)ccc23)cc1	?
Cc1cc(C)n(-c2nc3ccccc3nc2N2CCN(c3cccc(C(F)(F)F)c3)CC2)n1	-2.1%
COC(=O)c1ccc([C@@H]2Nc3c(cccc3C(F)(F)F)[C@@H]3C=CC[C@@H]32)cc1	-4.7%
Cc1cccc2nc(Cn3c(=O)n(-c4ccccc4)c(=O)c4c5c(sc43)CCC5)cc(=O)n12	-1.9%
COc1ccc(C2C(C(=O)Nc3cccnc3)=C(C)Nc3nc(-c4ccc(OC)c(OC)c4)nn32)cc1 (stereo unspecified)	-6.6%
O=C(Cn1ccn(-c2ccc(F)c(F)c2)c(=O)c1=O)Nc1ccccc1F	-2.0%
C[C@H](NC(=O)OC(C)(C)C)c1nnc(SCc2c(F)cccc2Cl)o1	2.4%
O=C(Cn1c(=O)n(Cc2ccco2)c(=O)c2sc3ccccc3c21)Nc1ccc(F)cc1F	?
O=C(Nc1sc2c(c1C(=O)NCC1CCCO1)CCC2)c1cc(=O)c2ccccc2o1 (stereo unspecified)	12.2%
Cc1cc(C(F)F)n2nc(C(=O)Nc3c(C)cccc3C)nc2n1	1.3%
CCc1ccc(NC(=O)Cn2c(=O)n(Cc3nc(-c4ccccc4)no3)c(=O)c3cc4c(cc32)OCO4)cc1	-17.2%
CCn1cc(S(=O)(=O)c2cccc(C)c2)c(=O)c2cc(F)c(N3CCCC(C)C3)cc21 (stereo unspecified)	-4.6%
O=C(Nc1onc2c1CCCC2)c1ccc(Cl)cc1	1.0%
O=C(Nc1ccc(S(=O)(=O)N2CCC(c3nc4ccccc4s3)CC2)cc1)c1ccccc1F	?
COc1cc(C(=O)Nc2c(C(=O)Nc3ccccc3F)oc3ccccc23)cc(OC)c1OC	36.6%
COC(=O)c1ccccc1NC(=O)c1ccc2c(c1)CCN2S(=O)(=O)c1ccc(Cl)cc1	-0.6%
CCOc1ccc(CCNC(=O)CCn2c(=O)c3cccn3c3cccnc32)cc1	-25.8%
COCC(=O)N1c2nc(-c3ccco3)nn2C2(CCCCC2)[C@@H]2CCCC[C@@H]21	-2.7%
COc1cccc(N2C(=O)CSC23C(=O)N(CC(=O)NCc2ccc(C)cc2)c2ccccc23)c1 (stereo unspecified)	-1.1%
Cc1ccc2oc(C(=O)Nc3ccc(S(=O)(=O)Nc4nccc(C)n4)cc3)cc(=O)c2c1	-1.9%
CC(C)Cc1nn2c(=O)cc(COC(=O)c3ccc(NC(=O)c4cccs4)cc3)nc2s1	-5.7%
CCOC(=O)c1ccc(N2CC3=C(C2=O)C(c2ccc(OC)cc2)NC(=O)N3C)cc1 (stereo unspecified)	4.5%
CCCCCNC(=O)C(=O)NCC(c1ccc2c(c1)OCO2)N1CCOCC1 (stereo unspecified)	0.8%
COc1ccc(CCn2c3c(c(=O)[nH]c2=O)C(NC(=O)c2ccc(Cl)cc2)(C(F)(F)F)C(=O)N3)cc1OC (stereo unspecified)	1.2%
CCOC(=O)c1c(C)c(-c2ccccc2)n(CC(=O)NC2CCCCC2)c1C	0.9%
CC(C)c1cc(-c2nc(-c3ccc(Br)cc3)no2)n[nH]1	0.4%
COc1ccc(-c2nc(CNC(=O)NC3CCCCC3)c(C)o2)c(OC)c1	-21.3%
COC(=O)c1cnc(N2CCN(c3ccccc3F)CC2)c2ccccc12	?
Cc1ccccc1CN1C(=O)c2ccccc2Sc2ccc(C(=O)NC3CCCCC3)cc21	-2.0%
Cc1ccc(NC(=O)CCc2c(C)nc3c(-c4ccccc4)c(C)nn3c2C)c(C)c1	-8.2%
Cc1ccc(-c2onc(C)c2C)cc1S(=O)(=O)N1CCC(C)CC1	-2.5%
CCN(CC)S(=O)(=O)c1nnc(NC(=O)COc2ccccc2F)s1	-2.5%
COc1ccc(N2CCN(C3=NS(=O)(=O)C(c4cccc(Br)c4)=C3C)CC2)cc1	0.0%
Cn1cc(-c2cc3n(n2)CCC(=O)N3CCCC(=O)NCc2ccccc2)c2ccccc21	-11.0%
COc1ccccc1-c1cc(C(=O)Nc2ccccc2C(F)(F)F)no1	-4.0%
Cc1cc2c(cc1C)-n1c(-c3ccccc3)c3c(=O)n(C)c(=O)n(C)c3c1C(c1ccco1)N2 (stereo unspecified)	-1.6%
CCc1cccc(-n2nnc(-c3nsc(NC(=O)c4cccs4)n3)c2C)c1	-17.5%
CCC1CN(C(=O)N2CCC(C(=O)NCCN(C)C)CC2)c2ccccc2O1 (stereo unspecified)	-0.6%
CCc1sc(Nc2ccc(C)cc2Br)nc1-c1cc2cccc(OC)c2oc1=O	-4.7%
CC(C)(C)c1ccc(C(=O)NC(Cc2c[nH]c3ccccc23)C(=O)OCC(=O)c2ccccc2)cc1 (stereo unspecified)	1.4%
COc1ccc(OC)c2sc(N3CCN(C(=O)CCS(=O)(=O)c4ccc(F)cc4)CC3)nc12	1.3%
COc1ccc(NS(=O)(=O)c2ccc3[nH]c4c(c3c2)CCCCCC4)cc1	-0.8%
CCOc1ccc(Nc2c(S(=O)(=O)c3ccc(C)cc3)cnc3ccc(OC)cc23)cc1	-3.3%
CCOC(=O)c1cnc2c(C)cccc2c1Nc1ccc(OC(C)C)cc1	2.8%
COC(=O)c1cc2sc(Cl)cc2n1Cc1nc(-c2ccccc2F)oc1C	-0.3%
Cc1ccc(C)c(NC(=O)CSc2ccc3nc(-c4ccccc4)cn3n2)c1	4.4%
COc1ccc(Cn2ccc3nc(C)c(C(=O)Nc4ccc(OC(F)(F)F)cc4)cc3c2=O)cc1	25.1µM*

# (further entries)
Structure	ClpP mod
O=C(CN(CCc1ccccc1)S(=O)(=O)c1ccccc1)NCc1ccc(Cl)cc1	1.0%
Cc1c(C(=O)NCc2ccccc2)sc2nc[nH]c(=O)c12	-51.6%
CC(=O)c1ccc(S(=O)(=O)Nc2ccc(-c3cn4c(C)csc4n3)cc2)cc1	-0.5%
CN(C)c1ccc(/C=C/c2nc3ccccc3s2)cc1Cl	-0.3%
Cc1cccc(CC(=O)NCc2nc3cccnc3n2Cc2ccc(F)cc2)c1	0.0%
CCN(CC)c1sc(S(=O)(=O)c2ccccc2)nc1S(=O)(=O)c1ccc(C)cc1	-2.8%
COc1ccc(NC(=O)c2cc(S(=O)(=O)N3CCCC(C)C3)cn2C)c(OC)c1 (stereo unspecified)	-2.4%
CCCN1C(=O)C(O)(CC(=O)c2ccc(OC)c(OC)c2)c2ccccc21 (stereo unspecified)	-4.5%
O=C(CSc1ncc2c(n1)-c1ccccc1N(Cc1ccc(F)cc1)S2(=O)=O)NCc1ccccc1	-18.8%
COc1ccc(CNc2cc(-c3ccc(OC)cc3)nc3nncn23)cc1	?
Cc1cc(/C=C/c2ccccc2)nc2ccccc12	?
CCOc1ccc(S(=O)(=O)c2cn(Cc3ccccc3)c3ccc(OCC)cc3c2=O)cc1	-8.6%
NS(=O)(=O)c1ccc(N=Nc2nc3[nH]cnc(=S)c3[nH]2)cc1	5.0%
NS(=O)(=O)c1ccc(CCNc2ncnc3c2cnn3-c2cccc(Cl)c2)cc1	-9.3%
Cc1ccc2nc(-c3cccc(NC(=O)c4cccc5ccccc45)c3)oc2c1	87.8%
O=C(COC(=O)C12CC3CC(CC(C3)C1)C2)NCC1CCCO1 (stereo unspecified)	-3.0%
CCOc1cccc(C(=O)Nc2cc(-c3ccc(C)cc3)no2)c1	4.1%
COc1ccc(C(=O)Oc2cc(-c3ccc4c(c3)OCO4)cc(=O)c3c(C)oc(C)c23)cc1	0.6%
COc1ccc(-c2nc3n(n2)C(c2ccc(OC)c(OC)c2)C(C(=O)Nc2cccnc2)=C(C)N3)cc1 (stereo unspecified)	-11.0%
O=C(Cn1c(SCC(=O)Nc2ccc(F)cc2)nc2ccccc21)NCc1ccccc1Cl	1.8%
CCC(=O)N1CCc2cc(Br)cc(S(=O)(=O)N3CCC(C(=O)Nc4ccc(OC)cc4)CC3)c21	0.3%
CC(C)c1ccc(NC(=O)c2cnn3c(C(F)F)cc(-c4ccccc4)nc23)cc1	5.5%
CC(=O)N1CCCC1c1nc2ccccc2n1Cc1ccc(F)cc1 (stereo unspecified)	-1.2%
Cn1nc(-c2ccccc2F)c2cc(C(=O)NCc3ccccc3Cl)sc21	?
CCc1nn2c(=O)c(S(=O)(=O)Nc3ccc(C)cc3C)c(C)nc2s1	0.9%
CCN(CC)c1nn2c(=O)c(C(=O)NCc3ccc(OC)cc3OC)cnc2s1	?
CCOc1ccc(CCNC(=O)c2cc(=O)[nH]c3ccc(S(=O)(=O)N4CCCCC4)cc23)cc1OCC	0.6%
Cc1ccc(-n2ncc3c(=O)n(Cc4ccccc4C)cnc32)cc1C	-13.2%
COc1ccc(CNC(=O)[C@@H]2CC=C[C@@H]3CCN(Cc4ccc(OC)c(OC)c4)C(=O)[C@@H]32)cc1	-0.2%
O=C(NCCc1ccc(Cl)cc1)C1CCN(c2ncnc3c2nc2n3CCCCC2)CC1	-2.6%
COc1ccccc1N1CCN(c2ncc3c(n2)CCN(Cc2ccccc2F)C3)CC1	-5.0%
Cc1ccc(C)c(NC(=O)CSc2ncc(S(=O)(=O)c3ccc(C)c(Cl)c3)c(=O)[nH]2)c1	-3.0%
COc1ccccc1CNC(=O)CCn1cnc2ccccc2c1=O	0.4%

# Assay outcomes from PubChem.

# Only part of the results is shown; count on the stated rates, not on these rows.
